Source: PubChem
T cruzi repl: blocks replication of Trypanosoma cruzi | hit rate 1.4% among 300,000 | T. cruzi beta-gal in NIH3T3, luminescence, 90 h | AID 1885 | inhibition, % (no concentration beside the values);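 active = mean inhibition across valid replicates above about 55%, limit read from the data; inconclusive = mean below that limit but half or more replicates reach it; inactive = mean below it, under half of replicates reach it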;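 also: signal also drops with host cell toxicity which is not excluded here; 0% = plate median of DMSO wells and 100% = zero luminescence signal; higher percent means less beta-gal luminescence so fewer parasites; stock transfer was 50 nL into about 50 µL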
Vif A3G: HIV-1 Vif–A3G interaction blockers – biochemical, TR-FRET, GST-Vif 1-94, biotin-A3G peptide, dose response retest, primary screen (AID 1117319); TR-FRET GST-Vif / biotin-A3G peptide binding; higher % means a stronger effect; test concentration not given here; strong numbers were not always called active; inhibition, %; hits with a dose series show IC50 in µM; hit rate 0.57% among 260,000;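 active = above the screen mean plus three standard deviations and confirmed in dose response; inconclusive = results disagree or hit not tested in dose response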;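 also: Vif residues 1-94 fused to GST binding biotinylated APOBEC3G peptide 110-148; 0% = full assay without inhibitor and 100% = GST in place of GST-Vif; retest series ran down from 100 µM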
RanGTP-Impb inh: inhibitors of RanGTP-importin-beta interaction, primary screen, biochemical, FRET, CFP-Ran, YFP-importin-beta, homogeneous; cell-free CFP-Ran/YFP-importin-beta FRET ratio; inhibition, % (test concentration not listed); hit rate 1.1% among 300,000; AID 2216;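 active = most replicates above 15%; inconclusive = exactly half above 15%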;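 also: 0% = DMSO wells and 100% = Ran loaded with GDP instead of GTP; wells of about 40 µL received 100 nL stock; the first replicate is given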
Calb FLC: C. albicans growth modulation with fluconazole | C. albicans CaCi-2 (fluconazole-resistant clinical isolate) + fluconazole, Alamar Blue growth, 48 h | growth inhibition, % (no concentration beside the values) | hit rate 0.57% among 300,000;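 active = most replicates above 75%; inconclusive = exactly half above 75%; inactive = most below 75%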;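 also: all wells also contain fluconazole at 8 µg/ml as a sub-toxic cotreatment; 0% = median of DMSO wells and 100% = median of geldanamycin control wells; wells of about 8 µL received 7.5 nL stock; the first replicate is given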
A1 inh: inhibitors of the anti-apoptotic protein A1, read as caspase activation. MEF A1-2A-BIM cells, Caspase-Glo 3/7 luminescence, 3 h; percent of clofoctol response, vehicle zero. caspase activation, % (no concentration beside the values). hit rate 0.066% among 330,000. AID 2462;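 active = over half of replicate activation scores above 10%, or exactly half above 10 with the replicate mean above 10; inconclusive = replicate mean below 10 yet half the replicates above 10; inactive = over half of replicates below 10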;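 also: wells of about 30 µL received 50 nL stock; many hits fall short of the cut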
AF4-AF9 inh: blocks AF4 peptide binding to human AF9; AlphaScreen, biotin-AF4 peptide binding to FLAG-AF9; hit rate 0.47% among 350,000; inhibition, % at 10 µM; AID 651704; P42568;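 active = every replicate reaching a set inhibition limit, whatever the replicate mean, cut at about 25% in these data; inconclusive = mean inhibition reaches that limit but some replicates miss it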;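 also: 0% = plate neutral control median and 100% = total signal loss; the record names both 10 and 1 µM as test concentration; the first replicate is given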
Beta apoptosis: beta cell apoptosis inhibition. protection from apoptosis, % (no concentration beside the values). hit rate 0.8% among 300,000. INS-1E cytokine-induced death, ATP luminescence, 48 h; percent of positive-control rescue, neutral wells zero;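 active = all replicates at 75% or more, or half of them and the mean; inconclusive = half reach 75% but not the mean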;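 also: 0% = cytokine-treated negative control wells and 100% = positive control rescue; higher means more ATP so stronger rescue from cytokine killing; wells of about 40 µL received 100 nL stock; the first replicate is given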
LANA-H2A inh: blocks KSHV LANA binding to histone H2A/H2B; AID 2629; hit rate 0.6% among 320,000; cell-free LANA-H2A/H2B peptide, fluorescence polarization; Q9QR71; inhibition, % (no concentration beside the values); in the data active = inhibition mostly above about 10%, no sharp cut-off; inactive = mostly below about 6.7%;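 also: stock transfer was 7.5 nL into about 10 µL; 0% = median of vehicle wells and 100% = median of positive control wells; one replicate is shown; the record names a cut of 25% in any replicate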
Target sequence (Q9QR71 whole entry, looked up): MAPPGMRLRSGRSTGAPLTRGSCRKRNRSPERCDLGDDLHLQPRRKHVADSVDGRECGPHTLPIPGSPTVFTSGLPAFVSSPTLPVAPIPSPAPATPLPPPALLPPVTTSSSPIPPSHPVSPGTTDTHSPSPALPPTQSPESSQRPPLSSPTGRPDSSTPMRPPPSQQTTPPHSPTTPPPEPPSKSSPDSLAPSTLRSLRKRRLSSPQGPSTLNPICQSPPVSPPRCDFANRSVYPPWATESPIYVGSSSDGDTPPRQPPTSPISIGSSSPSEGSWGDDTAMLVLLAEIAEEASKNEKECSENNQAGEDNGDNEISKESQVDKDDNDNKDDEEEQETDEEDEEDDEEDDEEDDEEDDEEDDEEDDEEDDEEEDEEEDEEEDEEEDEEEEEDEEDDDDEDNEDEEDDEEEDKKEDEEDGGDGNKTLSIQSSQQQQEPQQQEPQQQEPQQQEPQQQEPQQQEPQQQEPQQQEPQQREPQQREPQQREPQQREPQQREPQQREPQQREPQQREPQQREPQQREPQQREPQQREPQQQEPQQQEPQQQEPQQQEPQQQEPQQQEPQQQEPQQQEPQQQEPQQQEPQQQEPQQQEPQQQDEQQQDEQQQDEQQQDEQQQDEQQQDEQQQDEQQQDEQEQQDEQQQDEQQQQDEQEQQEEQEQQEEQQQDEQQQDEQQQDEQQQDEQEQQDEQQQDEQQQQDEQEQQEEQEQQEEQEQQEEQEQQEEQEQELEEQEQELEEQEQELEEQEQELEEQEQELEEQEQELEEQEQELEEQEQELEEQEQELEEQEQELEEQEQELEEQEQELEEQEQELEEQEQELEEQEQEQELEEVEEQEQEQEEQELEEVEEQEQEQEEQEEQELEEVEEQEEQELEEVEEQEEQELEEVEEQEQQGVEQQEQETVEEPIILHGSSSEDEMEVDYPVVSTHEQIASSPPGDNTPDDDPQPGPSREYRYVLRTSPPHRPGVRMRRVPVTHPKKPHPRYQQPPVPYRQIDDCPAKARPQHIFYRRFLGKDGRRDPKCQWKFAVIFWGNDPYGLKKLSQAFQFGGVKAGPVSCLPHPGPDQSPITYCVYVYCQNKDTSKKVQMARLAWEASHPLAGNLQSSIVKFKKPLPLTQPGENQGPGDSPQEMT
* marks the source's active call; other numbers are inactive results; ? = inconclusive; nt = not tested or not shown.

SMILES	T cruzi repl	Vif A3G	RanGTP-Impb inh	Calb FLC	A1 inh	AF4-AF9 inh	Beta apoptosis	LANA-H2A inh
OC(COc1c(Cl)cc(Cl)cc1Cl)CN1CCCCC1 (stereo not drawn)	25	-6%	3.8	-4	-0.2	nt	nt	-0.9
C/C(=N\Nc1ccc(C(=O)O)cc1)c1nc2ccccc2n1C	-24	nt	3.3	-15	-0.8	nt	2	0.3
C=CCOc1ccccc1CN1CCC(CO)(CCOc2ccccc2)CC1	10	0%	-0.5	0	0.9	2.7	-4	-1.0
COc1ccc(N=C2S/C(=C\c3ccc(C)s3)C(=O)N2CC(C)C)cc1	24	0%	2.7	2	0.9	nt	3	-3.7
O=C(Nc1ccc(OC(F)(F)F)cc1)c1cnc2n(c1=O)CCS2	-5	nt	1.3	1	-0.8	-1.7	16	2.2
COc1cc(S(=O)(=O)Nc2ncccc2C)c(OC)cc1Cl	-3	0%	2.2	-1	-0.2	nt	0	2.7
OC[C@H]1OC(O)[C@H](O)[C@@H](O)[C@H]1O (stereo partly drawn)	-11	nt	3.4	1	1.7	-1.2	-2	6.2
COCc1nc2ccccc2n1Cc1ccccc1Br	-14	-4%	-2.7	16	0.1	nt	-4	2.6
O=C(O)CCSc1nnnn1-c1ccccc1	-4	0%	-3.6	-4	0.9	nt	-6	-0.9
O=C(CNC(=O)c1ccco1)NCC(=O)OCc1ccc(Cl)cc1	12	-3%	0.2	nt	0.3	nt	-1	5.4
CC1CCN(C(=S)c2cn(Cc3cccc(F)c3)c3ccccc23)CC1	30	20%	3.1	-13	-0.6	-0.8	8	0.2
CCOC(=O)Nc1cc(C)ccc1OC	-3	?	4.6	-3	-0.6	nt	-1	-3.7
Nc1cc(N2CCCCCC2)c2nonc2c1[N+](=O)[O-]	9	4%	13	-11	-0.3	0.0	5	0.4
CSc1nnc(CCNS(=O)(=O)c2ccc(Br)cc2)n1C	0	nt	2.3	-3	-0.4	-0.2	-8	-3.5
Cc1ccc(-n2ncc3c2CCCC3NC(=O)c2ocnc2C)cc1C (stereo not drawn)	-91	nt	-1.8	1	-0.9	-1.0	80*	2.6
NC(=O)c1cccc(N=Cc2cc(Cl)cc(Cl)c2O)c1	-15	13%	-5.4	-1	nt	1.7	nt	nt
COc1ccccc1N/C(=N/S(=O)(=O)c1ccc(C)cc1)c1ccc(Cl)cc1	7	1%	2.2	16	0.4	nt	nt	-0.8
Cc1c(Cl)cccc1NC(=S)N(CCN(C)C)C(C)c1ccco1 (stereo not drawn)	-9	-12%	1.2	-5	0.6	9.2	-7	-0.4
Cc1nnc(SCCCCSc2nnc(C)c(=O)[nH]2)[nH]c1=O	-15	2%	-1.6	1	-0.6	-1.2	4	0.5
O=C(COC(=O)CCSc1ccccc1)Nc1ccccc1Br	nt	nt	nt	nt	0.6	-2.7	-2	0.4
CC(C)C(NC(=O)CNC(=O)OC(C)(C)C)C(=O)NCc1ccc(Cl)cc1 (stereo not drawn)	-15	1%	-2.9	1	0.1	-0.7	-3	-1.1
Cc1cc(OCC(=O)OCC(=O)NCc2ccc3c(c2)OCO3)ccc1Cl	nt	0%	nt	nt	0.4	-3.0	-9	3.8
COc1ccc(OCC(=O)N/N=C(\C)c2cccs2)cc1	-9	-8%	2.1	-5	0.2	0.4	-4	0.5
O=C(COc1ccccc1C(=O)NCC1CCCO1)Nc1ccc(Cl)cc1Cl (stereo not drawn)	11	-6%	-4.8	-5	-0.5	-1.9	0	4.3
Cc1ccc(-c2nnc3n2CCCCC3)cc1	3	32%	2.1	-4	-0.5	nt	-15	-0.1
Cc1cccc(/C=N/c2sc3c(c2C(=O)OC(C)(C)C)CCN(C)C3)c1O	11	0%	?	-1	0.2	nt	-9	-1.1
N#C/C(=C\c1cccnc1)C(=O)Nc1ccc(O)cc1F	-11	-5%	12	-8	0.4	-0.3	1	2.9
CCCCCCC(C)n1[nH]c(=O)c2c(C)cc(=O)[nH]c21 (stereo not drawn)	4	-4%	-3.8	36	0.6	nt	4	-0.4
CCn1ccnc1C(O)c1cccc2ccccc12 (stereo not drawn)	-8	nt	-2.7	-7	0.0	-0.4	-15	-0.1
O=C(O)c1ccc(Cn2cnc3sc4c(c3c2=O)CCCC4)cc1	-1	nt	0.3	?	0.4	-1.1	-1	2.4
COCC(=O)N=Nc1c(O)[nH]c2ccccc12	-14	nt	1.6	?	-0.5	-2.0	-2	-3.2
Cc1ccc(COn2c(-c3ccc(Cl)cc3)nc3ccc([N+](=O)[O-])cc32)cc1	46	11%	-0.8	-44	-2.0	nt	nt	-4.7
COc1ccc(NC(=O)C2C(=O)N(C)C3(C)CC2c2ccccc2O3)cc1 (stereo not drawn)	-6	6%	0.3	-14	-0.5	nt	-5	2.8
S=C(c1ccc(-c2ccccc2Cl)o1)N1CCOCC1	7	-5%	3.7	-5	-5.6	nt	-10	2.2
COc1ccc(C(=O)CSc2nccc(=O)[nH]2)cc1	0	0%	1.1	-7	-0.2	nt	-7	4.4
CC(C)(C)c1ccc(NC(=S)NCc2cccs2)cc1	-1	8%	3.3	18	0.1	nt	16	-1.1
CCCCCC(O)CCC(=O)NNC1=CC(=O)CC(C)(C)C1 (stereo not drawn)	-6	nt	1.4	0	-0.3	-0.4	5	0.5
Cc1ccc(S(=O)(=O)N2CCC(C(=O)NNC(=O)c3ccc(F)cc3)CC2)cc1	-21	-7%	7.8	10	-1.0	0.5	nt	-2.4
CCCS(=O)(=O)Nc1ccc2cn[nH]c2c1	-5	nt	-1.5	-2	-0.6	-0.9	2	14
O=C(Nc1ccc2c(c1)OCCO2)c1coc2ccccc2c1=O	-10	nt	-0.8	-22	-0.4	nt	-10	-4.8
c1ccc2c3c([nH]c2c1)CCNC3	10	-5%	2.2	3	0.6	25*	-10	0.3
COc1cc(S(=O)(=O)Nc2cccnc2)ccc1F	1	3%	0.1	0	-0.2	nt	-16	4.3
CCOC(=O)c1cc(C#N)c(N2CCCCC2)nc1-c1ccccc1	10	-6%	-3.8	14	-1.4	nt	9	-1.9
CCOC(=O)C1=C(COC(=O)CCc2ccccc2)NC(=O)NC1C (stereo not drawn)	nt	9%	nt	nt	-0.1	-7.5	-10	0.9
Cc1ccc2c(CN3CCCCC3)cc(=O)oc2c1C	5	-14%	-3.1	0	1.2	-0.4	1	-5.8
CC(=O)N1CCc2cc(S(=O)(=O)NCC(=O)NCc3ccccc3Cl)ccc21	17	nt	-0.6	-6	0.1	-0.2	-5	1.6
Cc1ccc(Nc2c(-c3ccc(C)o3)nc3ncccn23)cc1	-1	nt	-4.0	2	0.1	nt	5	-6.5
COc1ccc(N(CC(=O)NC2CCCCC2)C(=O)CCC(=O)Nc2nc(C)cs2)cc1OC	7	nt	-2.5	-3	0.6	-1.8	-4	2.6
O=C(C1CCCCC1)N1CCN(c2ccccc2F)CC1	5	8%	0.2	-30	-0.4	nt	0	-7.5
CCOc1nc(N2CCCCC2)nc(-n2cc(-c3ccccc3)nn2)n1	-3	-2%	-2.0	2	-0.3	nt	0	5.0
CCN(CCCNC(=O)CCc1nc(-c2ccc(C)cc2)no1)c1cccc(C)c1	16	17%	0.8	0	-0.5	nt	nt	0.3
Cc1cc(NC(=O)CCC(=O)N(c2ccc(F)cc2)C(C(=O)NC2CCCC2)c2ccc(C)o2)no1 (stereo not drawn)	3	3%	-3.1	?	0.2	-13	-4	3.0
COc1ccc(N2CCN(CC(=O)Nc3cccc(S(=O)(=O)N4CCOCC4)c3)CC2)cc1	-17	nt	-1.6	0	0.4	0.4	-1	1.6
N#Cc1c(NC(=O)c2cc(C3CC3)on2)sc2c1CCC2	-18	6%	?	0	-0.6	-1.4	5	-1.3
S=C(NCCc1ccccc1)Nc1c(Cl)cccc1Cl	4	-16%	1.1	8	0.7	-0.3	-23	0.6
S=C(NCc1ccccc1)NC1CCCc2ccccc21 (stereo not drawn)	-4	-8%	-1.0	-3	-0.3	2.8	-3	-3.0
O=C1CC(SCc2nc3ccccc3[nH]2)C(=O)N1c1cccc(F)c1 (stereo not drawn)	-19	-3%	1.2	-49	0.9	-2.7	nt	-4.6
COC(=O)C1C(=O)NC(SC)=C(C#N)C1c1ccccc1 (stereo not drawn)	-8	3%	6.0	-5	0.1	nt	-4	-13
CCc1nc2ccccc2c(C(=O)OCC(=O)NC(=O)c2cccn2C)c1C	-1	?	0.0	2	1.1	15	6	-1.6
CC1c2cccn2CCN1S(=O)(=O)c1ccc(F)cc1 (stereo not drawn)	nt	-8%	nt	nt	-0.1	-0.9	-5	0.0

Look-ups from the list:
CC1c2cccn2CCN1S(=O)(=O)c1ccc(F)cc1 (stereo not drawn) – LANA-H2A inh: 0.0
S=C(NCCc1ccccc1)Nc1c(Cl)cccc1Cl – A1 inh: 0.7

Additional entries:
SMILES	T cruzi repl	Vif A3G	RanGTP-Impb inh	Calb FLC	A1 inh	AF4-AF9 inh	Beta apoptosis	LANA-H2A inh
Nc1nonc1-n1nnc(C(=O)N/N=C/c2ccc(F)cc2)c1-c1ccc2c(c1)OCO2	-22	nt	1.6	-2	-0.7	-1.7	0	2.9
COc1ccc(-c2csc(-c3ccc(C(=O)O)cc3)n2)cc1	-7	nt	0.4	?	-2.8	-0.5	-3	-2.9
Cc1cc(C(=O)OCC(=O)Nc2ccc(S(N)(=O)=O)cc2)c2ccccc2n1	2	-3%	-2.8	127*	0.3	-1.9	-2	1.2
Cc1ccc(NC(=O)C(NCc2ccccn2)c2ccccc2)cc1 (stereo not drawn)	-6	12%	-0.9	-10	-4.6	1.1	-2	0.0
CC1(C)CC2(CC(C)(C)N1)OC(=O)N1CCc3ccccc3C12C (stereo not drawn)	-11	7%	?	-6	1.1	-1.2	-2	2.9
O=C(c1ccc2ccccc2n1)N(CCO)Cc1ccccc1	0	nt	4.8	0	0.1	-2.4	nt	-2.2
CC(NC(=O)COC(=O)C1CCN(c2ccc(C(F)(F)F)cn2)CC1)c1ccc(Br)cc1 (stereo not drawn)	5	5%	4.1	1	-0.1	-14	-2	0.9
O=C(/C=C\Nc1ccc2c(c1)OCO2)c1ccccn1	-1	-7%	2.7	-13	0.3	nt	7	-1.7
O=C(O)C1Cc2ccccc2CN1C(=O)COc1ccc(Cl)cc1Cl (stereo not drawn)	7	nt	0.0	4	1.1	-2.3	-5	3.6
COc1ccc(CCNC(C)=O)cc1	-12	7%	-0.7	-3	0.0	nt	-5	-2.3
O=C(COC(=O)CNC(=O)c1cccc(Br)c1)Nc1nnc(-c2ccccc2)o1	nt	nt	nt	nt	-0.8	-4.3	-7	1.1
CCCn1c(SCC(=O)N2CCCC(C)C2)nnc1-c1cccnc1 (stereo not drawn)	6	nt	0.1	-1	0.2	0.3	-15	-0.4
CC(C)(CC(=O)O)Cc1nc(-c2ccc(Cl)cc2)no1	10	-3%	1.3	16	0.8	-1.8	-7	-0.6
COc1cccc(NC(=S)NN=C2CCC(C(C)(C)C)CC2)c1 (stereo not drawn)	-16	-29%	-0.3	-12	0.3	12	9	-3.3
COc1ccccc1CC(=O)N1CCCc2ccccc21	-3	-5%	3.6	19	0.6	nt	-2	1.4
